Screening data as filed in PubChem BioAssay.
Vaccinia mCherry: qHTS for Stage-Specific Inhibitors of Vaccinia Orthopoxvirus: mCherry Reporter Primary qHTS | hit rate 0.63% among 310,000 | Vaccinia virus mCherry reporter infection, fluorescence; about a quarter of the inactives have no number | AID 720579, 2013 | Potency, µM (series often up to 36.5 µM), inactives show at the top dose activity change, negative = inhibition, usual class: inhibitors; active = well fitted inhibition curve with a large enough effect; inconclusive = small, poorly fitted or top-dose-only effect; inactive = no such curve, though single readings can be large or run the other way; tested in A549 cells; note: nearly all actives have a fitted effect of over 35% in size; inactives centre near -10
Vaccinia Venus: qHTS for Stage-Specific Inhibitors of Vaccinia Orthopoxvirus: Venus Reporter Primary qHTS. Vaccinia virus Venus reporter expression, fluorescence. Potency, µM (doses to about 36.5 µM), inactives show top-dose activity change, negative = inhibition, usual class: inhibitors. hit rate 0.46% among 330,000. AID 720580, 2013; active means well fitted inhibition curve with a large enough effect; inconclusive means small, poorly fitted or top-dose-only effect; inactive means no such curve, though single readings can be large or run the other way; tested in A549 cells; note: nearly all actives have a fitted effect of over 30% in size; inactives centre near -10
Starred values were filed as active, the others as inactive; i = inactive; ? = inconclusive; nt = not tested or not shown; & = joins results of further samples; [ ] = another dose, or the depositor's remark. % is set by controls: 0 for no effect and ±100 for the full control effect; potency is the fitted concentration of half-maximal effect. Rows are unselected; 0.87% or so of the library scored in one or more.

SMILES	Vaccinia mCherry	Vaccinia Venus
COc1cc(C=C2C(=O)NC(=O)NC2=O)ccc1O	i	-14%
CN(C)CCCNC(=O)OC1CC2CC1[C@H]1CCCCN1C2=O (stereo not given in full)	2%	3%
O=C(Nc1nnc(S(=O)(=O)N2CCCc3ccccc32)s1)c1ccccc1	-13%	-14%
CN(NS(=O)(=O)c1ccccc1)c1nc2ccccc2nc1C(F)(F)F	-15%	-9%
Clc1ccc(N2CCN(Cc3ccc(Br)o3)CC2)cc1	-18%	-11%
CC(C)C[C@@H](COc1ccccc1)N1CCN(Cc2ccccc2)CCC1=O	-21%	-3%&-5%
O=C(NNc1ccc(-c2csnn2)cc1)c1cc(Cl)cc(Cl)c1	-26%	-21%
CN(C)C1(CNC(=O)C2CCN(S(=O)(=O)c3c(Cl)cccc3Cl)CC2)CCCCC1	-9%	-10%
Cc1ccc(NC(=O)Cn2c(=O)c(CNc3ccccc3)cc3cc4c(cc32)OCCO4)cc1	-13%	-6%
O=C(CN1CCSc2ccccc21)N1CCN(c2cccc(Cl)c2)CC1	-14%	-6%
CCc1ccccc1NC(=O)CSc1nnc([C@@H]2CCCN2C(=O)OC(C)(C)C)o1	i	-12%
COc1ccc2c(c1)[C@H]1[C@H](CO2)[C@H](c2ccccc2)[C@]2(C)C(=O)Nc3ccc(F)cc3C(=O)N12	?	?
Cc1ccc(C)c(S(=O)(=O)N2CCCOC2CNC(=O)C(=O)NC2CC2)c1 (stereo not given)	-14%	-11%
CCNC(=O)NC(=O)COc1ccccc1C#N	-17%	-1%
COc1ccc2c(c1)N(S(=O)(=O)c1ccccc1)CCC2=O	i	-3%
Cc1nc(Nc2ccccc2)c2oc3ccc(Cl)cc3c2n1	10%	-14%
O=C(CSc1nc2ccccc2c(=O)[nH]1)N1CCCCCC1	-19%	-20%
O=C1NC[C@@H](CCCCN2C[C@H](Cc3ccccc3)N(CCC3CCCCC3)C(=O)C2=O)N(CC2CCCCC2)C1=O	1%	-21%
Cc1ccc(S(=O)(=O)N2CCOCC2)cc1C(=O)NC1CCCCCC1	i	-9%
CC(=O)N1c2ccccc2NC2=C(C(=O)CC(C)(C)C2)C1c1cccn1C (stereo not given)	-9%	-1%
CCCCNC(=S)N1CCN(C(c2ccccc2)c2ccccc2)CC1	-21%	-14%
Cc1csc(=N)n1-c1ccc(Cl)cc1	i	-4%
CC(C)(C)c1ccc(C(=O)NNc2cc(N3CCOCC3)nc(N3CCOCC3)n2)cc1	1%	-5%
COc1ccc(CNC(=O)COC(=O)Cc2ccc(Cl)cc2Cl)cc1	-13%	-16%
COc1ccc(OC)c(NC(=O)Cn2cnc3c(oc4ccccc43)c2=O)c1	-3%	-12%
Oc1ccccc1N1CCN(CC(O)COCc2ccccc2Cl)CC1 (stereo not given)	-11%	-11%
CO[C@H]1[C@H](NC(=O)c2ccco2)c2ccccc2C12CCN(Cc1ccc3cccc(F)c3n1)CC2	-12%	-6%
CCC1Oc2ccccc2N(CC(=O)N2CCOCC2)C1=O (stereo not given)	16%	6%
COC(=O)c1cc(NC(=O)CSc2nc(C)cc(=O)[nH]2)cc(C(=O)OC)c1	-16%	0%
CCOC(=O)C1CCN(C(=O)C(=O)N2CCC(C(=O)OCC)CC2)CC1	-3%	-4%

Retrieved one by one from above, 7 records:
SMILES	Vaccinia mCherry	Vaccinia Venus
CCC1Oc2ccccc2N(CC(=O)N2CCOCC2)C1=O (stereo not given)	16%	6%
Oc1ccccc1N1CCN(CC(O)COCc2ccccc2Cl)CC1 (stereo not given)	-11%	-11%
Cc1csc(=N)n1-c1ccc(Cl)cc1	i	-4%
COC(=O)c1cc(NC(=O)CSc2nc(C)cc(=O)[nH]2)cc(C(=O)OC)c1	-16%	0%
CC(C)(C)c1ccc(C(=O)NNc2cc(N3CCOCC3)nc(N3CCOCC3)n2)cc1	1%	-5%
COc1ccc(CNC(=O)COC(=O)Cc2ccc(Cl)cc2Cl)cc1	-13%	-16%
COc1ccc(OC)c(NC(=O)Cn2cnc3c(oc4ccccc43)c2=O)c1	-3%	-12%

Next part:
SMILES	Vaccinia mCherry	Vaccinia Venus
O=C(c1cn(-c2ccccc2)nc1-c1ccccc1)n1nnc2ccccc21	i	-15%
CCOC(=O)C1(C)CCN1C(=O)Cc1ccc(OC)cc1 (stereo not given)	1%	0%
O=C(c1ccc(N2CCC(NCCCn3ncc4ccccc43)CC2)cc1)N1CCOCC1	-10%	-2%
COc1ccccc1N(C)S(=O)(=O)c1ccc(C(=O)OCC(N)=O)cc1	-7%	-3%
Cc1ccc(-n2cc(-c3ccccc3)c3c(N4CCCCC4)ncnc32)cc1	-6%	2%
NC(=O)CCS(=O)(=O)c1ccccc1	-10%	-4%
Cc1ccc2c(CC(=O)NNC(=O)c3ccccc3O)coc2c1	?	-23%
Cc1ccc(C(=O)Nc2nc(=O)[nH]s2)cc1	-27%&-19%	-2%&-9%
CC1(C(=O)NS(=O)(=O)c2ccc(Cl)cc2)CCN1C(=O)CC1CC1 (stereo not given)	7%	0%
COc1cccc(CNC(=O)c2ccc(N3CCOCC3)c([N+](=O)[O-])c2)c1	-14%	-8%
O=C(NCc1ccccc1Cl)c1ccc2c(c1)NC(=O)C(CS(=O)(=O)Cc1ccc(Cl)cc1)N2 (stereo not given)	-10%	22%
O=C(Cn1cc([N+](=O)[O-])cn1)NCCc1nc2ccccc2[nH]1	i	-4%
O=C(CCCCCn1c(=O)[nH]c2ccccc2c1=O)NCCc1ccccc1	-16%	-16%
O=C(CN1C(=O)CC(c2ccccc2)S(=O)(=O)c2ccccc21)NC1CCCC1 (stereo not given)	5%	-3%
CC(=O)C1=C(O)C(=O)N(Cc2ccco2)C1c1ccc2c(c1)OCO2 (stereo not given)	-15%	-10%
COc1ccc(C(c2nnnn2-c2ccc(OC)cc2)N2CCC(n3c(=O)[nH]c4ccccc43)CC2)cc1 (stereo not given)	-26%	-14%
Cc1ccc(N2C(=O)CC(Cn3nc(C)cc3C)C2=O)cc1 (stereo not given)	-14%	3%
Cc1nn2c(nc1=O)NNC2(C)C(C)(C)C (stereo not given)	?	0%
CN(CC(=O)NCc1ccc(Cl)cc1)S(=O)(=O)c1cccs1	-16%	-15%
Cn1nc(C(C)(C)C)cc1C(=O)N1CCCC(C)(C(=O)NS(=O)(=O)C2CC2)C1 (stereo not given)	35%[activator]	2%
Cc1cccc(N2CCN(C(=O)c3ccc4c(Cl)c5c(nc4c3)CCCC5)CC2C)c1 (stereo not given)	-2%	0%
O=C(NCCCc1ccncc1)C1CCC(=O)N(Cc2cccc(C(F)(F)F)c2)C1 (stereo not given)	0%	-13%
O=C(O)c1ccc(-c2ccccc2C(F)(F)F)o1	-10%	-7%
c1ccc(-c2[nH]ncc2-c2nc3ccccc3[nH]2)cc1	-9%	2%
C[C@@H]1CN([C@@H](C)CO)C(=O)CCCn2nncc2CO[C@@H]1CN(C)S(=O)(=O)c1cccs1	-14%	-7%
COc1ccc(N2CC(C(=O)Nc3ccc(S(=O)(=O)Nc4nc(C)cc(C)n4)cc3)CC2=O)cc1 (stereo not given)	?	?
CC(C)(C)NC(=O)C(c1ccc(O)cc1)N(Cc1ccco1)C(=O)CCC(=O)Nc1ccccn1 (stereo not given)	-8%	-3%
COCCNC(=O)c1cc2c(=O)n3cccc(C)c3nc2n1C	i	-21%
COc1ccc(C(=O)N/C(=C/c2cccs2)c2nc3ccccc3[nH]2)cc1OC	0%	-15%
Cc1[nH]c2ccc(C(=O)N3CCC(C(N)=O)CC3)cc2c1C	-7%	-3%
CCN(CCO)CC1CCCC2CCCCC21 (stereo not given)	11%	6%
O=C1CN(C(=O)c2cc3ccccc3oc2=O)C(c2ccccc2)c2cc(F)ccc2N1 (stereo not given)	i	-8%
CC(C)NC(=O)C1(C)CCN1C(=O)c1ccccc1F (stereo not given)	23%	-2%
CCCCN(CC)c1nc(-c2ccccc2F)nc2ccccc12	-2%	-7%
COc1ccc(N2CCN(CCNC(=O)C3CC(=O)N(C4CCCC4)C3)CC2)cc1 (stereo not given)	i	-13%
Cc1ccc(NC(=O)Cn2nnc(-c3ccccc3NC(=O)c3cccs3)n2)cc1	-19%	?
CCOc1cccc(N)c1	i	-4%
CCOC(=O)c1c(C)nc2sc(C(=O)Nc3ccccc3)c(N)c2c1-c1ccc(OC)cc1	nt	?
CCOC(=O)Cn1cc(/C=C(/C#N)C(=O)NC(C)C)c2ccccc21	i	1%
CCOC(=O)C(NCCOC)(NC(C)=O)C(F)(F)F (stereo not given)	-6%[7.34 µM]	-18%[7.34 µM]
N#CNC1=NCN(CCc2ccccc2)CN1	nt	-10%
O=S(=O)(NCc1ccc(Cl)cc1)c1cnc[nH]1	-3%	-1%
CCN(CC(=O)NC(C)(C)C)C(=O)CN1c2cccc3cccc(c23)S1(=O)=O	-11%	-13%
COc1cccc(/C=N/NC(=O)CC(C)O)c1OC/C=C/c1ccccc1 (stereo not given)	-4%	-22%
O=C(CNC(=O)c1ccco1)NCC(=O)OCc1ccccc1Cl	-14%	3%
CCCCn1nnnc1C(c1cc2ccccc2o1)N1CCN(c2ccccc2F)CC1 (stereo not given)	-14%	-11%
ON(CCc1ccncc1)Cc1ccccc1	-28%	-5%
O=c1nc2n(c3ncccc13)CCC2	i	-17%
Clc1cccc(-c2nc3ccccn3c2Nc2ccc3c(c2)OCCO3)c1	-8%	-8%
C/C(=N\NS(=O)(=O)c1cccc([N+](=O)[O-])c1)c1cccnc1	2%	5%

In another format: entries from further up
Fields: Vaccinia mCherry, Vaccinia Venus
CCN(CC(=O)NC(C)(C)C)C(=O)CN1c2cccc3cccc(c23)S1(=O)=O
 : -11%, -13%
COc1cccc(/C=N/NC(=O)CC(C)O)c1OC/C=C/c1ccccc1 (stereo not given)
 : -4%, -22%
O=C(CNC(=O)c1ccco1)NCC(=O)OCc1ccccc1Cl
 : -14%, 3%
CCCCn1nnnc1C(c1cc2ccccc2o1)N1CCN(c2ccccc2F)CC1 (stereo not given)
 : -14%, -11%
ON(CCc1ccncc1)Cc1ccccc1
 : -28%, -5%
O=c1nc2n(c3ncccc13)CCC2
 : i, -17%

Next section.
SMILES	Vaccinia mCherry	Vaccinia Venus
COc1ccc(S(=O)(=O)NCCc2csc3nc(-c4cccc(C)c4)nn23)cc1F	-12%	-20%
CCOC(=O)c1csc(COc2ccc(OC)cc2)n1	i	-19%
COC(=O)C1=C(c2ccc(OC)c(OC)c2)C[C@@H]2CC[C@H]1N2C(=O)NCCO	i	-2%
COc1cc(-c2nnc(SC/C=C/c3ccccc3)n2N)cc(OC)c1OC	6%	11%
Cc1nc2c(C(=O)NCCc3ccc(Cl)cc3)cnn2c(C)c1Cc1c(F)cccc1Cl	-15%	-6%
COc1ccc(CCCc2nc3ccccc3[nH]2)cc1	60%[activator]	-8%
Nc1nnc(-c2ccco2)s1	i	-11%
O=C(Nc1ccc(OC(F)F)cc1)c1cc[n+]([O-])cc1	i	-8%
COc1ccc(CNC(=O)c2cccc(N(C)C)c2)cc1	-7%	4%
O=C1CCCC2=C1C(c1ccccc1)NC(=S)N2 (stereo not given)	-1%	-9%
CC(=O)Nc1cccc(NC(=O)C(=O)c2cn(CC(=O)N3CCCC3)c3ccccc23)c1	7%	-7%
Cc1csc(=O)n1CCC(=O)OCC(=O)Nc1cccc(C#N)c1	i	-14%
CCOC(=O)c1c(S(=O)(=O)NCC(=O)Nc2ccc(C)c(N(C)C)c2)c(C)n(C)c1C	1%	3%
CNC(=S)N/N=C(\C)c1ccccc1	i	-15%
O=S1(=O)CCN(Cc2cccc(Cl)c2)CC1	nt	-14%
COc1ccc(CCC(=O)N2C[C@H]3C[C@@H](C2)c2cccc(=O)n2C3)cc1	-2%	-5%
CCOc1ccc(N2C(=O)/C(=C/c3cc(OC)c(OC)c(OC)c3)N(CC(=O)OC)C2=S)cc1	-26%	-25%
COc1cc(C(C[N+](=O)[O-])c2c(N)n(C)c(=O)n(C)c2=O)ccc1O (stereo not given)	-20%	-26%
COc1ccc(-n2nnc(-c3nc(-c4ccc5c(c4)OCO5)no3)c2C)cc1Cl	-8%	-4%
O=c1cc(CN2CCCc3ccccc32)nc2sccn12	?	-3%
Cc1cccc(OCCCOc2cccc3cccnc23)c1C	nt	-13%
CC(C)(C)C1CCC(=NOC(=O)c2ccc(F)cc2)CC1 (stereo not given)	i	-4%
O=C(COC(=O)c1c2c(nc3ccccc13)CCCC2)c1cccs1	-22%	-14%
COc1ccc(NC(=O)COC(=O)c2ccc3ccccc3n2)c(OC)c1	-15%	-7%
Cc1cccc(CSc2nnc(CCCCCNC(=O)OC(C)(C)C)o2)c1	i	1%
CCOC(=O)N1CCN(C(=O)c2cccn3c(=O)c4cc(Br)ccc4nc23)CC1	i	10%
COc1ccc(/C=N/n2c(-c3ccccc3)n[nH]c2=S)cc1	-14%	-24%
CCn1c(C)nnc1SCC(=O)Nc1cccc(C(F)(F)F)c1	-4%	-15%
CCN1CC(CN(C)Cc2nc(-c3ccc(OC)c4ccccc34)oc2C)CC1=O (stereo not given)	i	-10%
C=CCn1c(-c2ccccc2)n[nH]c1=S	-7%	-8%
O=Cc1cn(CCC(=O)O)nc1-c1cccc(Cl)c1	5%	3%
Cc1ccc(C(=O)OCC(=O)c2ccc(S(=O)(=O)N3CCCCC3)cc2)o1	-13%	-8%
CC(=O)N1CCN(c2nc3c(F)cc(F)cc3s2)CC1	-4%[7.34 µM]	-5%[7.34 µM]
